Compound activity from PubChem BioAssay.
PKD1 kinase inh – inhibitors of human PKD1 kinase. 0.056% of 200,000 active. inhibition, %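 (about 10 µM by stock and volumes)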. Q15139. PKD1 kinase fluorescence polarization assay;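 active = inhibition of 50% or more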;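 also: controls were vehicle for no effect and a reference inhibitor for full effect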
HSV replic up – HSV replication enhancement; AID 1956; HSV replication augmentation in cells, fold increase; maximum fold increase; 0.005% of 220,000 active;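 active = peak rise of 1.5-fold or more in the series; tested in PC3 cells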;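 also: first round at 10 µM; read as green reporter fluorescence; hits show the peak of a series up to 25 µM; 1 = signal of infected wells without compound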
RGS16-Gao – modulates binding between human RGS16 and Galphao; AID 1441; bead-based flow cytometry RGS16-Galphao binding, fluorescence; actives lie on both sides; O15492+P09471; binding response (% of control), % at 10 µM; 0.38% of 220,000 active;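 active = below 25% or above 175%, edge rows of some plates excepted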;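 also: Galphao activated by GDP with aluminum fluoride before binding; 100% = wells without compound and 0% = beads without RGS; some results beyond the cut were filed as inactive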
Target sequence (O15492 whole entry, looked up): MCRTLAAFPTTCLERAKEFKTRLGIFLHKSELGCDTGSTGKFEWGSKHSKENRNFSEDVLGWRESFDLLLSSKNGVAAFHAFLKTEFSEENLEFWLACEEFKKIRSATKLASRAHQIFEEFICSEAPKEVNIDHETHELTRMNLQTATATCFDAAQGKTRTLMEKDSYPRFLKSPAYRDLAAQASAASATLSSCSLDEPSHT
Target sequence (P09471 whole entry, looked up): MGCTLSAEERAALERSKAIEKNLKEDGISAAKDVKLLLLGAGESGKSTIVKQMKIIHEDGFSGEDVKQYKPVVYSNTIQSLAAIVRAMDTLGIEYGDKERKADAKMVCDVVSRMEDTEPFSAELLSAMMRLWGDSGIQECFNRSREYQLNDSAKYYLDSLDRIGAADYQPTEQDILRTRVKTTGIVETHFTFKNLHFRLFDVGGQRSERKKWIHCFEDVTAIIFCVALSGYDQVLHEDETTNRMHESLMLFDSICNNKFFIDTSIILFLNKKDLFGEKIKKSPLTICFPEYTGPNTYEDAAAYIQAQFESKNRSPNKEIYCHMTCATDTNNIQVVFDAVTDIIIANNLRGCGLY
GALR2 agonist – GALR2 (human) receptor agonism; O43603; GALR2-expressing cells, agonist activation read-out; activation, %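 (tested at 5 µM)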; 0.48% of 140,000 active; AID 803;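 active = above mean plus 3 SD of all compounds, about 5% in these data, not always enough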;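 also: 0% = vehicle buffer wells and 100% = reference agonist at full effect; tested in CHO reporter cells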
Insulin prom inh – TRM-6 insulin promoter activity inhibition. TRM-6 cells (human fetal islet line), insulin promoter-eGFP reporter, imaging; reporter expression induced with tamoxifen. inhibition, % at 2 µM. 0.9% of 130,000 active;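 active = inhibition above the mean plus 3 SD, with well images judged a real hit on visual review, cut at about 60% in these data, passing the limit was not always enough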
Insulin prom inh cell count – also measured in Insulin prom inh; calls as there; normalized cell count, %; measured here: cell count, toxicity; reference of the scale not given here;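 cells exposed to compound for 48 h; stained nuclei by imaging scaled within each plate; lower means fewer cells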
HSV replic up primary fold – also measured in HSV replic up; calls as there; fold increase; compound at 10 µM; measured here: primary screen fold increase 10 uM; tested in PC3 cells;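 GFP signal in the first replicate; 1 = infected wells without compound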
* = called active by the depositor; i = inactive; . = not tested or not shown.

Structure	PKD1 kinase inh	HSV replic up	HSV replic up primary fold	RGS16-Gao	GALR2 agonist	Insulin prom inh	Insulin prom inh cell count
CC1CCc2sc3c(c2C1)c1ncnn1c(=O)n3CC(=O)c1ccc(Br)cc1 (configuration not stated)	-11.4	i	1.02	.	-2.9	40.5	159.8
COc1cccc(N2CCN(c3ccc(N4C(=O)CCC4=O)cc3[N+](=O)[O-])CC2)c1	0.1	i	0.96	87.7	.	14.3	121.8
COc1ccc(S(=O)(=O)N2CCN(Cc3ccc(Cl)cc3)CC2)cc1	-1.9	i	0.9	94.8	-1.1	-37.8	73.8
CCOc1ccc(NC(=O)CSCC(=O)O)cc1	3.3	i	0.92	99.2	-1.6	10.7	166.1
O=C(Nc1ccccc1)Nc1nnc(CSCc2ccccc2Cl)s1	-2.6	i	1.02	104.7	0.3	3.2	104.8
Cc1cc(NC(=S)NC(=O)c2ccco2)c2ccccc2n1	-1.8	i	1.08	102.0	.	47.6	147.0
C=CCN1C(=O)NC2(O)C(=O)c3ccccc3C12O (configuration not stated)	-6.4	i	0.86	108.6	0.8	7.7	181.9
CC(=O)c1ccc(NC(=O)C2(S(=O)(=O)c3ccccc3)CC2)cc1	0.1	i	0.99	108.6	.	45.5	170.0
O=c1cc(N2CCN(c3ccc(F)cc3)CC2)[nH]c(=O)n1Cc1ccc(F)cc1	3.1	i	0.51	94.9	-1.6	.	.
CCOC(=O)CCc1c(C)n(CC)c2ncnn2c1=O	-12.2	i	0.96	103.5	-2.0	.	.
Cc1cccc(C)c1NC(=O)C1CCCNC1 (configuration not stated)	-0.7	i	0.96	227.7	-0.6	.	.
O=C(COC(=O)c1c2c(nc3ccccc13)CCCCC2)c1ccc(Cl)s1	-3.8	i	0.91	98.9	-1.0	.	.
Cc1cccc(C(C#N)c2ccc(Cl)nn2)c1 (configuration not stated)	-7.2	i	0.89	103.8	.	.	.
CC(=O)NCCNC(=O)CNC(=O)c1ccc(Cl)cc1	-2.0	i	1	100.9	-0.2	.	.
CN(C(=O)c1ccncc1)c1nnc(-c2cnccn2)s1	-7.7	i	1.01	98.5	-1.0	-10.7	126.9
O=C(OCC(=O)N1CCN(Cc2ccccc2)CC1)c1ccc(Cl)cc1	-3.6	i	0.92	95.4	.	-18.8	78.7
CC1(C)CN=C(NC2CCCCC2)S1	0.9	i	0.93	99.2	-1.2	42.9	79.1
COC(=O)c1cccc(C(=O)Nc2cnc3ccccc3c2)n1	-4.4	i	0.76	101.9	-2.5	45.2	102.4
COc1cccc(-c2cc(C(=O)Nc3ccc(OC)c(OC)c3)no2)c1	-8.3	i	1.03	93.7	-0.3	.	.
CC1C(=O)N(c2ccc(S(=O)(=O)N(C)C)cc2)C1(/C=C/c1ccccc1)C(=O)NC1CCCC1 (configuration not stated)	-2.2	i	0.86	100.8	-0.7	.	.

Of the compounds above, these have an aryl methoxy group:
Structure	PKD1 kinase inh	HSV replic up	HSV replic up primary fold	RGS16-Gao	GALR2 agonist	Insulin prom inh	Insulin prom inh cell count
COc1cccc(N2CCN(c3ccc(N4C(=O)CCC4=O)cc3[N+](=O)[O-])CC2)c1	0.1	i	0.96	87.7	.	14.3	121.8
COc1ccc(S(=O)(=O)N2CCN(Cc3ccc(Cl)cc3)CC2)cc1	-1.9	i	0.9	94.8	-1.1	-37.8	73.8
COc1cccc(-c2cc(C(=O)Nc3ccc(OC)c(OC)c3)no2)c1	-8.3	i	1.03	93.7	-0.3	.	.

Remaining list, next part.
Structure	PKD1 kinase inh	HSV replic up	HSV replic up primary fold	RGS16-Gao	GALR2 agonist	Insulin prom inh	Insulin prom inh cell count
CONc1nc2nonc2nc1NOC	-5.6	i	0.82	101.1	-1.6	0.0	110.7
O=C1CC(c2cccnc2)c2cc3c(cc2N1)OCCO3 (configuration not stated)	3.2	i	0.89	95.9	-2.7	-60.0	47.0
COc1ccccc1NC(=O)CCSc1nnc(-c2ccncc2)o1	-1.2	i	0.83	94.9	.	.	.
COc1ccc(C(=O)Nc2ccc(NC(=O)c3cccs3)cc2)cc1[N+](=O)[O-]	-7.8	i	0.98	101.9	1.1	.	.
CCS(=O)(=O)c1nc(S(=O)(=O)c2ccc(C)cc2)c(NCc2ccccn2)s1	1.3	i	0.97	98.3	.	.	.
CCn1c(-c2cc(-c3ccccc3)sc2N)n[nH]c1=S	.	i	0.83	99.3	.	.	.
CC(=O)Oc1ccc(C2C3=C(CC(C)(C)CC3=O)Nc3cc4c(cc32)OCCO4)cc1 (configuration not stated)	-7.4	i	0.85	102.7	.	.	.
Cc1ccc(-c2nc3ccccc3c(=O)n2Cc2ccccc2)cc1	5.2	i	1.07	113.3	-0.6	-22.9	31.9
CCN(CC)S(=O)(=O)c1ccc(N2CCCCC2)c(NC(=O)/C(C#N)=C/c2ccc(OC)cc2)c1	7.7	i	0.95	109.9	-0.8	-16.7	119.0
CCOc1ccc(Nc2nc(Cc3nnc(SCC(=O)NC4CCCC4)n3C)cs2)cc1	5.1	i	0.96	101.8	-0.3	-50.7	88.7
CCC(C)NC(=O)CSc1ncnc2sccc12 (configuration not stated)	-10.5	i	1	99.5	.	.	.
CC(C)=NNc1nc(-c2ccccc2)c(C)s1	1.3	i	0.86	94.4	.	43.8	117.3
COc1ccc(/C=N/c2oc(-c3ccccc3)cc2C#N)cc1	-9.4	i	0.77	93.4	-1.2	0.0	94.0
COC(=O)c1oc2ccc(Cl)cc2c1N	-2.9	i	0.9	102.0	-1.7	20.0	36.8
CCN(C(=O)c1ccc(S(C)(=O)=O)cc1)C12CC3CC(CC(C3)C1)C2	-9.9	i	0.98	99.6	-0.8	.	.
O=C(/C=C\c1ccc(-c2cccc([N+](=O)[O-])c2)o1)N1CCOCC1	-1.3	i	0.67	96.4	.	.	.
CCOC(=O)C1CCN(Cc2cnc(Oc3ccc(N)cc3)s2)CC1	-1.4	i	1.02	100.0	-3.9	-33.3	74.5
COc1ccc(F)cc1C(=O)C1CCCN(Cc2cccn2-c2ccccn2)C1 (configuration not stated)	-7.5	i	0.79	102.0	.	.	.
COc1ccc(NC(=O)CCSc2ccc(C)cc2)cc1	-8.6	i	0.95	77.6	-0.4	27.3	93.7
COc1ccc(S(=O)(=O)N(CC(=O)NCCC(C)C)c2ccccc2)cc1OC	-8.9	i	1	94.9	.	.	.
Cc1ccc(S(=O)(=O)Nc2cccc3cccnc23)cc1	-4.1	i	0.56	133.7	0.2	12.3	97.8
COc1ccc(Cl)cc1NC(=O)Cn1nc(-c2ccc(C)cc2)n(C)c1=S	-1.7	i	0.93	102.3	-0.5	25.0	106.8
Cc1cccc(C)c1NC(=O)CSc1ncnc2nc[nH]c12	0.7	i	0.84	120.2	0.1	-18.2	115.8
Cc1ccc(/C=C/C(=O)NCc2cccs2)o1	-1.9	i	0.91	97.6	.	20.0	85.0
O=C(Nc1cccnc1)c1cccc(F)c1	1.6	i	0.8	100.1	-2.7	-53.9	128.7
COc1cccc(CN2CCC(C(=O)N3CCN(c4ccccc4F)CC3)CC2)c1OC	-5.5	.	.	109.9	-0.7	8.3	157.9
O=C(Cc1cn2ccsc2n1)NCc1ccccc1	10.9	i	0.63	99.0	-0.3	.	.
CC1=CC(C)(C)n2c(O)c(N=N)c3c(C)ccc1c32	.	i	1.03	98.9	.	.	.
O=[N+]([O-])c1cc(C(F)(F)F)ccc1Sc1nccn1Cc1ccccc1	-11.1	i	1.02	107.8	-0.6	-4.2	104.1
COc1ccc(NC(=O)c2cc(Cl)ccc2Cl)c([N+](=O)[O-])c1	7.1	i	0.92	104.7	-1.7	-46.1	136.1
COc1ccc(C2C(C(=O)/C=C/c3ccco3)=C(O)C(=O)N2CCN2CCOCC2)cc1 (configuration not stated)	-6.6	i	1	97.8	.	44.4	106.1
Cc1cc(/C=N/n2cnnc2)c(C)n1-c1cccc(C(=O)O)c1	3.8	i	1.04	99.0	-0.9	-14.3	76.3
CCN1C(=O)/C(=C2/C=Cc3cc(C)ccc3N2CC)N(C)C1=S	6.0	i	1.11	104.0	-1.9	.	.
CC(NC(=O)CCNC(=O)c1ccccc1Cl)C1CC2CCC1C2 (configuration not stated)	-4.5	i	1.05	66.9	-1.6	-51.4	57.1
O=C(NCCSCc1c(F)cccc1Cl)c1ccco1	-0.2	i	0.823	97.0	-0.5	.	.
O=[N+]([O-])c1ccc(Cc2nnc(-c3ccccc3Cl)o2)cc1	-3.3	i	0.91	90.6	.	-343.8	60.3
Cc1noc(C)c1CSc1ccccc1C(=O)Nc1nccs1	-4.6	i	1.01	95.6	-0.3	9.1	90.8
O=C(Nc1ccc(Cl)cc1C(=O)NCc1cccnc1)c1ccco1	-7.8	i	1.04	131.2	-1.0	-42.9	106.0
O=C(c1cnccn1)N1CCc2ccccc21	-1.9	i	0.86	97.6	-0.7	11.5	63.9
O=C(Cn1[nH]c(=O)c2ccccc2c1=O)NC1CCCCCC1	-5.5	i	0.91	98.5	-1.2	20.0	75.0

Among those listed so far, 4 contain an NH in an aromatic ring:
Structure	PKD1 kinase inh	HSV replic up	HSV replic up primary fold	RGS16-Gao	GALR2 agonist	Insulin prom inh	Insulin prom inh cell count
O=c1cc(N2CCN(c3ccc(F)cc3)CC2)[nH]c(=O)n1Cc1ccc(F)cc1	3.1	i	0.51	94.9	-1.6	.	.
CCn1c(-c2cc(-c3ccccc3)sc2N)n[nH]c1=S	.	i	0.83	99.3	.	.	.
Cc1cccc(C)c1NC(=O)CSc1ncnc2nc[nH]c12	0.7	i	0.84	120.2	0.1	-18.2	115.8
O=C(Cn1[nH]c(=O)c2ccccc2c1=O)NC1CCCCCC1	-5.5	i	0.91	98.5	-1.2	20.0	75.0

(continued)
Structure	PKD1 kinase inh	HSV replic up	HSV replic up primary fold	RGS16-Gao	GALR2 agonist	Insulin prom inh	Insulin prom inh cell count
CN1CCN(C(CNS(=O)(=O)c2ccc(F)cc2)c2cccnc2)CC1 (configuration not stated)	1.5	i	0.97	99.1	0.7	16.9	74.2
COC(=O)C1CCCN1C(=O)COc1ccc(Cl)cc1Br (configuration not stated)	-0.6	i	0.96	102.1	-0.3	15.4	138.5
O=C(Nc1ccccc1)NC1CCCCC1	-3.6	i	0.92	112.2	-2.0	27.8	115.6
Cc1cccc2cc(COC(=O)c3ccccn3)c(=O)[nH]c12	-10.8	i	0.85	-25.0*	-3.1	.	.
O=[N+]([O-])c1ccc2[nH]c3nc4ccccc4nc3c2c1	.	i	0.84	95.0	.	.	.
